BJeLR lethal: kills HRASV12-expressing BJeLR cells. BJeLR (HRASV12) viability, CellTiter-Glo ATP luminescence, 48 h; reference of the scale not given here. inhibition, % (test concentration not listed). 0.17% of 300,000 active. AID 1554;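 active = replicate mean above 50%; inconclusive = above 50% but judged a plate artefact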;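 also: 50 nL library stock added to about 25 µL; numbers are from one replicate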
PrP UTR inh: suppresses PrP 5' UTR mRNA reporter expression | cell-based PrP 5' UTR mRNA reporter, plate reader | inhibition, % (no concentration beside the values) | 0.35% of 340,000 active | AID 488862;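 active = every replicate at 50% or more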;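 also: 0 = median of the neutral control wells; tested in H4 reporter cells; numbers are from one replicate; inactives centre near -14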
Sa RN4220 lethal: kills Staphylococcus aureus RN4220; inhibition, % (no concentration beside the values); S. aureus RN4220 growth, OD600, 16 h; 0.33% of 330,000 active;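 active = z-score of -3 or lower and OD600 up to 0.18 on both plates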;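 also: plate controls were untreated cells for no effect and reference antibiotic for full effect; stock transfer was 100 nL into about 80 µL; one replicate is shown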
Mtb hypoxia rep: reduces hypoxia-regulated biosensor signal in M. tuberculosis; M. tuberculosis hypoxia-regulated fluorescent reporter, fluorescence; 0.1% of 300,000 active; AID 1159583; fluorescence inhibition, % (no concentration beside the values);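 active = 35 to 45% if threefold the growth effect, above 45% if 1.5-fold the growth effect; inactive = the rest, general growth blockers included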;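 also: wells of about 50 µL received 100 nL stock; 0% = vehicle wells and 100% = reference inhibitor wells; whole bacteria with a GFP reporter of the hypoxia response; strong numbers were not always called active; many hits fall short of the cut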
Sa ugtP lethal: compounds lethal to S. aureus RN4220 ugtP deletion mutant. 0.54% of 330,000 active. OD600 growth, 16 h; some inactives read as strong as hits. growth inhibition, % (no concentration beside the values);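 active = z-score under -3 and OD600 up to 0.15 on both plates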;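 also: plate controls were untreated wells for no effect and antibiotic for full effect; wells of about 80 µL received 100 nL stock; the first replicate is given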
Autofluor counter: counter-screen for toxin protease inhibitors: compound fluorescence | compound autofluorescence counterscreen, microsphere flow cytometry; stronger effect = higher value | fluorescence intensity (no concentration beside the values) | 3.1% of 360,000 active | AID 624483;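 active = at least 3 SD above the mean of all compounds, about 16000 in these data; inconclusive = too few beads counted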;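 also: 100 nL of 1 mM stock went into each well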
Mtb hypoxia rep growth: also measured in Mtb hypoxia rep; calls as there; growth inhibition, %; measured here: M. tuberculosis growth (absorbance);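 0% = vehicle and 100% = reference antibiotic; read after six days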
* = called active by the depositor; ? = inconclusive; . = no result given.

SMILES	BJeLR lethal	PrP UTR inh	Sa RN4220 lethal	Mtb hypoxia rep	Mtb hypoxia rep growth	Sa ugtP lethal	Autofluor counter
Nc1nc(SCc2nnc(SCC(=O)O)n2-c2ccccc2)nc2sc3c(c12)CCCC3	-5	-25	-1.5	-1	-5	-1	?
COc1cc2c(cc1OC)CN(CC(=O)Nc1ccc(C)c(S(=O)(=O)N3CCOCC3)c1)CC2	9	-7	1.6	2	9	0	4983
Cn1nnnc1SCc1csc(Nc2ccccc2)n1	-9	-36	3.7	.	.	-2	2957
O=C(Cn1nnc(-c2ccccc2)n1)Nc1cccc(S(=O)(=O)N2CCOCC2)c1	1	-8	0.9	15	1	4	6015
COc1cccc(C(=O)Nc2ccc3c(c2)C(=O)N(CCC(=O)O)C3=O)c1	2	-9	-3.3	3	7	-2	20871*
CCOC(=O)/C(C#N)=C/Nc1ccccc1NS(=O)(=O)c1ccc2c(c1)OCCO2	.	5	0.3	-5	-7	-5	?
CCOc1ccc(N(CC(=O)NCC2CCCO2)S(=O)(=O)c2ccc(Cl)cc2)cc1 (stereo unspecified)	5	-13	0.0	6	-2	0	4398
NNC(=O)[C@H](Cc1ccccc1)NC(=O)NCCc1ccccc1	1	-3	3.0	0	-3	5	3997
O=C(/C=C/c1ccc([N+](=O)[O-])cc1)OCC(=O)N1CCOCC1	.	-3	7.7	8	5	13	2990
CCOC(=O)CCCCC(=O)c1[nH]c(=O)[nH]c1CSc1nc2ccccc2[nH]1	-6	-43	3.1	12	-2	12	7134
CCCC(C(=O)Nc1ccc(S(=O)(=O)Nc2nccs2)cc1)c1ccccc1 (stereo unspecified)	.	-6	3.0	-2	11	-6	?
Cc1cc(S(=O)(=O)N(Cc2ccc(C(C)(C)C)cc2)Cc2cccs2)ccc1-n1cnnn1	0	-12	1.3	5	6	5	2375
CCc1nc(SCc2cccnc2)[nH]c(=O)c1C	-10	-20	-0.5	3	5	-8	4273
Cc1oc2nc(SCCCC(=O)NCCO)nc(N)c2c1C	0	-17	-11	18	10	-1	3233
Cc1ccc(-n2nc3c(=O)n(CC(=O)NC4CCCCCC4)nc(C)c3c2C)cc1	6	-3	7.9	3	4	16	4471
CC(=O)Nc1sc(C)c(C)c1C(=O)OCC(=O)NC(C)c1ccccc1 (stereo unspecified)	.	-15	3.7	7	1	-3	.
Cn1cnnc1SCCC(=O)Nc1ccccc1	-1	-4	3.6	8	9	6	15658
CCc1ccc2nc(N(CCN(C)C)C(=O)c3ccc4ncsc4c3)sc2c1	3	-7	.	.	.	.	5598
CCc1cc(-c2[nH]ncc2-c2ccc3c(c2)OCO3)c(O)cc1O	-8	7	27	0	0	8	10444
O=C(CSc1nnc(Cc2cccs2)n1Cc1ccco1)Nc1cc(Cl)cc(Cl)c1	2	-31	-4.2	2	7	-23	5800
C[C@H](NC(=O)c1ccccc1Cl)C(=O)OCC(=O)N1CC2(C)CC1CC(C)(C)C2 (stereo partly specified)	2	-24	.	.	.	.	2287
C#CCNC(=O)C1=C[C@H](c2csc3ccccc23)C[C@H](OCc2ccc(CO)cc2)O1	-6	-23	.	.	.	.	3839
O=C(Nc1ccc(Cl)c(NC(=O)c2cccs2)c1)c1ccco1	2	-2	3.5	4	-2	9	3081
CC(C)NC(=O)CN(c1cccc([N+](=O)[O-])c1)S(=O)(=O)c1ccccc1	-7	0	8.1	17	5	9	2466
COc1ccc(Cl)cc1-c1nc(SCC(=O)NC(C)(C)C)n[nH]1	-6	-14	2.6	-15	-6	-7	4243
CCc1c(C(=O)NN=Cc2sccc2C)nnn1-c1nonc1N	.	.	5.4	-4	4	3	.
CCOC(=O)c1cc(C#N)c(N)nc1C	-7	.	3.1	-1	3	4	10399
Cc1c(C#N)c2ccccc2n1CC(=O)O	6	-6	5.4	6	-3	4	4653
CCCn1nnc2ccccc2c1=O	4	-17	-2.0	-4	-13	-4	4397
COc1ccc(OC)c(C(=O)NN=Cc2ccccn2)c1	.	.	2.8	4	-3	6	.

4 entries drawn at random from the list so far, as already listed:
SMILES	BJeLR lethal	PrP UTR inh	Sa RN4220 lethal	Mtb hypoxia rep	Mtb hypoxia rep growth	Sa ugtP lethal	Autofluor counter
CCCn1nnc2ccccc2c1=O	4	-17	-2.0	-4	-13	-4	4397
Cc1c(C#N)c2ccccc2n1CC(=O)O	6	-6	5.4	6	-3	4	4653
O=C(Nc1ccc(Cl)c(NC(=O)c2cccs2)c1)c1ccco1	2	-2	3.5	4	-2	9	3081
C#CCNC(=O)C1=C[C@H](c2csc3ccccc23)C[C@H](OCc2ccc(CO)cc2)O1	-6	-23	.	.	.	.	3839

Other results:
SMILES	BJeLR lethal	PrP UTR inh	Sa RN4220 lethal	Mtb hypoxia rep	Mtb hypoxia rep growth	Sa ugtP lethal	Autofluor counter
NNC(=O)CCn1c2ccccc2c2ccccc21	10	1	.	.	.	.	3976
Cc1ccc(S(=O)(=O)N2[C@@H](c3ccc(Br)cc3)C(C(=O)O)=CC[C@H]2c2ccc3c(c2)OCO3)cc1	.	-32	21	0	7	16	3369
Cc1csc(=O)n1CC(=O)Nc1ccc(C(C)C)cc1	.	-19	-2.1	-6	9	1	5714
CC(=O)Nc1ccc(S(=O)(=O)NCc2ccncc2)cc1	1	-14	2.6	-6	-7	3	3236
Cc1ccc(NC(=O)N2CCC(c3ccccc3)C2)cc1C (stereo unspecified)	-2	-129	0.3	15	-5	15	4053
CC(=O)NC1C(=O)Nc2c1cccc2C(F)(F)F (stereo unspecified)	4	-11	4.9	.	.	5	2765
O=C1CC2c3ccccc3C1C1C(=O)N(CCc3ccccc3)C(=O)C21 (stereo unspecified)	-2	-7	3.5	13	10	4	1953
O=C(CN1C(=O)NC2(CCCc3ccccc32)C1=O)c1ccccc1F (stereo unspecified)	.	-8	4.6	13	9	-3	4183
CC(=O)N(/N=C/c1ccc(C)cc1)c1nc(CCl)cs1	0	-54	.	.	.	.	5404
CCCn1c(N)[n+](CC(=O)c2ccco2)c2ccccc21	2	-46	4.8	14	2	1	5394

Structures listed so far with fluorine:
SMILES	BJeLR lethal	PrP UTR inh	Sa RN4220 lethal	Mtb hypoxia rep	Mtb hypoxia rep growth	Sa ugtP lethal	Autofluor counter
CC(=O)NC1C(=O)Nc2c1cccc2C(F)(F)F (stereo unspecified)	4	-11	4.9	.	.	5	2765
O=C(CN1C(=O)NC2(CCCc3ccccc32)C1=O)c1ccccc1F (stereo unspecified)	.	-8	4.6	13	9	-3	4183

Further results follow.
SMILES	BJeLR lethal	PrP UTR inh	Sa RN4220 lethal	Mtb hypoxia rep	Mtb hypoxia rep growth	Sa ugtP lethal	Autofluor counter
CCN1C(=O)[C@H]2[C@@H](c3ccc(-c4ccc(OC)cc4)cc3)N[C@@](CC(C)C)(C(=O)OC)[C@H]2C1=O	3	-7	.	.	.	.	4118
COc1ccc(S(=O)(=O)N2CCN(C(=O)c3cc(C)oc3C)CC2)cc1	1	-31	3.1	0	2	4	4441
CCN1CCN(c2ncnc3scc(-c4ccc(C)cc4)c23)CC1	-1	7	1.5	-5	3	-4	3859
COc1cc2c(cc1OC)C(C)=NCC2	-2	-19	4.5	.	.	6	5032
CCOC(=O)C(Sc1n[nH]c(N)n1)c1ccccc1 (stereo unspecified)	-3	-9	-4.1	.	.	5	4610
COc1ccc(CSc2ccc(-c3nc4ccccn4c3NCc3ccccc3)cc2OC)cc1	5	-22	5.4	-1	7	4	3829
Cn1c(CNc2nc3ccccc3n2CCN2CCCCC2)nc2ccccc21	5	-9	-5.5	0	0	-11	3883
O=C(NCc1ccncc1)c1cnccn1	-11	-29	0.7	10	12	0	8576
O=C(CN1CCCC1)Nc1nnc(-c2cccs2)s1	-8	-18	1.0	14	10	6	2739
COc1cc(OC)c(C(=O)/C=C/c2ccc(OCc3ccccc3)c(OC)c2)c(OC)c1	5	-11	1.5	11	15	18	4325
COc1ccc(-c2c(C(=O)O)c(C(=O)O)c3n2CCC3)cc1	-13	-2	1.6	7	8	7	3004
Cc1ccc2c(COC(=O)CC3Sc4ccccc4NC3=O)cc(=O)oc2c1C (stereo unspecified)	-16	-50	5.0	-3	4	-17	2198
COc1ccc(CCNC(=O)CCCn2nc(C)n3ccnc3c2=O)cc1OC	-8	8	-8.5	5	15	-4	5987
CCN1/C(=C/c2ccc3ccccc3[n+]2CCCS(=O)(=O)[O-])C=Cc2cc(C)ccc21	6	5	1.6	9	-6	5	2927
O=C(C1CCN(c2ncnc3c2nc2n3CCCCC2)CC1)N1CCN(c2ccc(F)cc2)CC1	2	-19	0.5	4	22	3	5916
Cn1nnc(NC(=O)CSc2ccc(Cl)cc2)n1	0	14	1.5	.	.	3	4755
Cc1cccc(CCN(CC(=O)NC2CCCCC2)C(=O)c2csnn2)c1	8	-38	9.3	-6	3	6	5257
Cc1nn2c(nc(N3CCOCC3)c3ccccc32)c1C=C(C#N)C#N	2	-5	5.1	-9	-6	0	2039
CC(CN1C2=NCC(Cc3ccc(O)cc3)N2CC1Cc1ccc(O)cc1)NC(=O)CCC1CCCCC1 (stereo unspecified)	.	.	4.5	-3	9	4	.
CCn1c2ccccc2c2cc(NC(=O)c3ccccc3[N+](=O)[O-])ccc21	-1	-21	19	7	4	-8	2550
CCOc1ccc(S(=O)(=O)N=C(c2ccccc2)N2CCOCC2)cc1	.	1	0.7	0	3	-2	2857
CC(=O)Nc1ccc(NC(=O)C2CCN(C(=O)c3cccs3)CC2)cc1	-2	-12	2.0	5	-3	3	2620
N/N=C(/Cc1nc2ccccc2[nH]1)c1ccc([N+](=O)[O-])cc1	-4	-27	.	.	.	.	4258
CCNC(=O)NC(=O)C(C)Sc1nnc(COc2ccccc2Cl)o1 (stereo unspecified)	-8	-11	9.2	9	-16	-3	3236
CCOC(=O)c1cc(S(=O)(=O)N2CCOCC2)cn1C	1	-5	3.0	3	4	5	5903
O=c1c2cc(N3CCOCC3)ccc2[nH]c(=S)n1CCCN1CCCCC1	-6	-9	6.1	2	8	-1	9667
Cc1ccccc1Nc1ncnc2c1cnn2Cc1ccccc1	1	.	2.2	7	9	5	5683
Cc1cc(N)n(-c2ncnc3scc(-c4ccc(Cl)cc4)c23)n1	-10	-10	4.9	1	4	-6	4450
COc1ccc(/C=C(/C#N)C(=O)Nc2ccccc2C)cc1C(=O)O	0	-14	1.0	-8	4	3	2510
CCN1C(=O)CC(C(=O)NC)SC1=Nc1cc(Cl)c(O)c(Cl)c1 (stereo unspecified)	-8	4	-3.3	-2	-5	6	3275
CCOc1ccccc1NS(=O)(=O)N(C)C	-13	-23	-0.6	12	11	-1	?
Nc1ccc2nc(Cc3ccccc3)[nH]c2c1	3	-26	.	.	.	.	4899
O=C(Nc1ccccc1OC(F)F)C1CCCN1C(=O)c1cccs1 (stereo unspecified)	3	-24	1.2	4	8	-4	2227
NC(=O)COC(=O)c1oc2ccccc2c1CSc1ccc(Cl)cc1	-2	-12	-5.5	12	6	96*	2704
CCCOc1ccc(N2C(=O)C3ON(c4ccccc4)C(CCC)C3C2=O)cc1 (stereo unspecified)	21	-2	-2.7	-11	2	-7	6975
O=C(CNC(=O)c1ccccc1)OC(C(=O)Nc1cc(C(F)(F)F)ccc1Cl)c1ccccc1 (stereo unspecified)	-2	-12	1.8	15	7	4	2518
N#Cc1ccccc1NC(=O)COc1ccccc1C(=O)Nc1ccccc1	.	7	-0.5	-5	-6	-5	2887
O=C(CCC(NC(=O)OCc1ccccc1)C(=O)OCc1ccccc1)NCC(=O)OCc1ccccc1 (stereo unspecified)	12	-17	0.9	16	9	13	2241
Cc1ccc(Cn2c(-n3nc(C)cc3C)nc3c2c(=O)[nH]c(=O)n3C)cc1	-13	-11	3.0	0	8	-4	22348*
CCC(C)[C@H](NC(=O)OC(C)(C)C)C(=O)NN=Cc1cccc2nccnc12 (stereo partly specified)	.	.	1.3	1	2	2	.
O=C(NC1CCCCC1)c1cc(-c2ccc(F)cc2)on1	1	-64	1.5	12	3	13	3225
CCOC(=O)C1CCCN(S(=O)(=O)c2ccc3c(c2)C(C)(C)C(=O)N3C)C1 (stereo unspecified)	-8	-9	2.7	-2	-2	8	6321
CSCC[C@H](NC(=O)OC(C)(C)C)C(=O)N1CCC(C(=O)N[C@@H](C)C(=O)NCc2ccc(F)cc2)CC1	-5	-4	1.7	.	.	6	5611
O=C(CNC(=O)c1ccc(Br)o1)Nc1ncccc1O	2	-7	4.7	3	1	3	4494
Cc1cccc(N2CCc3c2nc2ccc(Br)cc2c3N)c1	-1	-28	99*	19	7	100*	6794
